NPYLR7 agonist = activates Aedes aegypti NPYLR7 receptor; activation, % at 10 µM; HEK293T NPYLR7/Galpha15, GCaMP6s calcium fluorescence; actives 0.15% (n = 270,000); AID 1259423; in the data active = activation above about 40%;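 also: 0% = vehicle and 100% = reference agonist at the receptor; some compounds past the cut are filed as inactive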
NPYLR7 agonist max-min = second read-out of NPYLR7 agonist, no call of its own (marks repeat the call); activation, %; measured here: Max-Min RFU normalised activation; some inactives read as strong as hits;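 span of the calcium signal over five minutes; 0% = vehicle and 100% = native peptide agonist; compound fluorescence can raise it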
* = called active by the depositor; & = joins results of further samples.

SMILES	NPYLR7 agonist	NPYLR7 agonist max-min
Cc1ccc(C2=NN(C(=O)CSc3nc(N)cc(=O)[nH]3)C(c3ccco3)C2)cc1 (stereo not given)	-9	-13
Cc1ccc(-n2c(SCc3ccccc3)nnc2C(C)NC(=O)C(C)(C)CCl)cc1 (stereo not given)	11	4
CCc1nc2sc3c(N4CCCC4)ncnc3c2c2c1COC(C)(C)C2	4	0
Cc1c(C(=O)Nc2nnc(SCC(=O)Nc3nccs3)s2)cccc1[N+](=O)[O-]	4	10
Cc1nn(Cc2nc(-c3cccs3)no2)c(C)c1Br	-2	-5
CCn1c(C)cc(O)c(C(c2cccnc2)N2CCN(c3ccccc3F)CC2)c1=O (stereo not given)	9	5
N#Cc1cccc(OCC(=O)Nc2ccc(S(=O)(=O)N3CCCC3)cc2)c1	3	1
N#CC(=CC1C(=O)N(c2c(Cl)cccc2Cl)c2ccccc21)C(N)=NCc1ccccc1 (stereo not given)	-11	-17
CC(C)OP(=O)(OC(C)C)c1nn(-c2ccc([N+](=O)[O-])cc2)c(=N)s1	2	0
Cc1cc(S(=O)(=O)NCc2ccc3c(c2)OCO3)c(Cl)cc1Cl	-5	-6
CCCCCCCCC(=O)Nc1ccc(N2CCN(c3ccccc3OC)CC2)c(C(=O)NCCOC)c1	11	9
COC(=O)N1CCC(Nc2cc(C#N)c3ccccc3n2)C1 (stereo not given)	5	1
O=C(NCc1cccnc1-n1ccnc1)C1(c2ccccc2)CCCCC1	-4	-1
COC(=O)c1c(SCC(=O)NC(C)c2ccco2)nc(=O)[nH]c1C (stereo not given)	9	2
COc1cc(C(C)=O)ccc1OCC(O)Cn1nc(C)cc1C (stereo not given)	9	6
CCOc1ccc(CN2CCN(C(=O)c3cnn(C)c3C)CC2)cc1	1	0
CC(=O)Nc1cccc(NC(=O)Cn2c(-c3nnc(C)o3)cc3ccccc32)c1	10	3
CC(=O)N1CCc2c(nc(C)nc2N(C)Cc2n[nH]c3c2CCCC3)C1	2	1
CCOCCCNc1nc2c(c(=O)[nH]c(=O)n2C)n1CCCc1ccccc1	-6	6
FC(F)(F)c1cccc(N2CCCC(c3nccn3CC3CC3)C2)n1 (stereo not given)	4	3
O=C(O)C1CC2(CCNCC2)CN1C(=O)C1(c2ccc(Cl)cc2)CCC1 (stereo not given)	-6	-11
COCCN(CC(=O)Nc1nc(CC(=O)Nc2ccc(C)cc2)cs1)C(=O)c1ccccc1	20	16
O=C(O)CNC(=O)c1cc2c(s1)-c1ccccc1CC2	8	6
CCOC(=O)C(CC)Sc1ccc2nnc(CCNC(=O)c3ccc(OC)cc3)n2n1 (stereo not given)	2	-10
CC(C)n1ccnc1CN1CCC(OCc2ccccc2)CC1	2	1

(listing goes on)
SMILES	NPYLR7 agonist	NPYLR7 agonist max-min
COc1ccc(-c2csc(C(C)(O)c3cccc(F)c3)n2)cn1 (stereo not given)	6	1
Cn1c(N)c(C(=O)CSc2nnc(-c3cccs3)n2C2CC2)c(=O)n(C)c1=O	14	12
COc1cc([N+](=O)[O-])ccc1NC(=O)c1ccno1	13	9
O=S(=O)(c1ccccc1)N1CCN(S(=O)(=O)c2ccc(F)cc2)CC1	11	2
c1ccc(C2=NN=C(c3ccccc3)CCC2)cc1	1	1
CN(Cc1ccccc1)c1ncccc1CNC(=O)C(=O)N1CCOCC1	-2	-3
O=c1nc(SCc2ccccc2)c2c(n1Cc1ccccn1)CCC2	-2	-2
O=C(COc1ccccc1)NCCn1ncc2c(N3CCCCCC3)ncnc21	1	-1
CCS(=O)(=O)N1CCN(c2ccnc3cc(F)ccc23)CC1	1	-1
O=C1COc2ccc(Cl)cc2N1	5	1
O=C(C1CC=CCC1)N1CCc2onc(-c3ccc(C(F)(F)F)cc3)c2C1 (stereo not given)	11	-1
COc1cc(CN2CCN(Cc3cccc(SC)c3)CC2CCO)cc(OC)c1 (stereo not given)	-7	-6
CCOC(=O)C1C(=O)C=C2c3ccccc3CCC2C1c1ccccc1 (stereo not given)	6	10
Cc1cc(C)cc(-n2c(C)cn3c4c(=O)n(CCCO)c(=O)n(C)c4nc23)c1	-2	23
CC1CN(S(=O)(=O)CCNc2cc(Cl)nc(N)n2)CC(C)O1 (stereo not given)	3	3
O=C(NCCCN1CCOCC1)c1ccc(CSc2ccc3ccccc3n2)cc1	4	-1
CCOC(=O)c1c(NC(=O)c2ccc(C)cc2)sc(C(=O)Nc2cccc(Cl)c2)c1C	11	11
CCNC(=O)NC(=O)CSc1cccc(C)c1	2	15
Cc1ccccc1C(=O)NNC(=O)CCCCCN1C(=O)c2ccccc2C1=O	-4	-8
CC(=O)Nc1ccc(SCCCC(=O)N2CCN(Cc3ccccc3)CC2)nn1	-1	-1
CCOC(=O)c1ccccc1NC(=O)CSc1ccc(-c2cccs2)nn1	-4	-11
C=C(Cl)Cn1c(NCc2ccccc2)nc2ccccc21	-4	-5
Cc1c([N+](=O)[O-])c([N+](=O)[O-])nn1CC(=O)N1CCOCC1	1	-4
N#Cc1cccc(NC(=O)N(CC(=O)N2c3ccccc3-n3cccc3C2c2ccc(Cl)cc2)C2CC2)c1 (stereo not given)	-7	3
Cn1cnc2c(NCc3ccco3)ncnc21	0	3

Entries listed so far that contain a CF3 group:
SMILES	NPYLR7 agonist	NPYLR7 agonist max-min
FC(F)(F)c1cccc(N2CCCC(c3nccn3CC3CC3)C2)n1 (stereo not given)	4	3
O=C(C1CC=CCC1)N1CCc2onc(-c3ccc(C(F)(F)F)cc3)c2C1 (stereo not given)	11	-1

Further compounds follow.
SMILES	NPYLR7 agonist	NPYLR7 agonist max-min
Cc1cc(C)[n+]2cc(S(=O)(=O)O)sc2n1	17	14
O=C1c2ccccc2C(=O)c2cc(Cl)ccc21	-3	-7
CC(C)N1CCc2cc(-c3nccn3CCN3CCOC3=O)ccc21	1	-4
Cc1[nH]cnc1CN1CCc2c(c3ccccc3n2C)C1=O	-9	-8
CCc1cn[nH]c1C1CCN(c2nnnn2C(C)c2ccccc2)CC1 (stereo not given)	7	6
COc1ccc(S(=O)(=O)NCCc2ccc(F)cc2)c(OC)c1	1	3
CCC(CC)C(=O)N1CCC(=O)N(C)C[C@H]2CN(C)c3ccccc3[C@@H]21	2	9
COCCn1c(SCC(=O)Nc2cccc(C)c2)nc2c([nH]c3ccccc32)c1=O	8	4
Cc1[nH]n(-c2ccccc2)c(=O)c1-c1ccccc1	6	5
C=CCn1c(=NC(=O)c2ccccc2S(C)(=O)=O)sc2cc(F)ccc21	4	1
O=C(OCc1cc(-c2cc3ccccc3o2)on1)c1cc(=O)c2ccccc2o1	-3	-4
c1ccc2c(-c3cc(C4CCN(Cc5cncnc5)C4)ccn3)csc2c1 (stereo not given)	-8	-11
CN=c1scc(-c2cccc(Br)c2)n1N=Cc1cccc(F)c1	1	-3
Cn1nnnc1Sc1ccc([N+](=O)[O-])cc1Cl	1	5
CCn1nc(C)c(CNCc2cn(-c3ccc(OC)cc3)nc2-c2ccccc2Cl)c1C	-5	-8
O=C(NC1CC1)c1cn(C2CCCCC2)cc(C(=O)NC(c2ccccn2)C(F)(F)F)c1=O (stereo not given)	9	-2
Cn1cccc1C(=O)NC(=O)COC(=O)C1CCN(C(=O)c2ccc(F)cc2)CC1	5	1
O=C(CC(SCCO)c1ccc(OC(F)F)cc1)c1ccco1 (stereo not given)	-6&3	-6&-1
Cc1sc2nc(CCc3ccccc3)nc(N3CCSCC3)c2c1C	29	39
COc1ccc(-c2noc(CN3CCN(c4ccccc4)CC3)n2)cc1	12	8
COc1ccc(C)cc1NC(=O)C(OC(=O)Cc1cn2ccsc2n1)c1ccccc1 (stereo not given)	6	10
CCc1ccc(NC(=O)CSc2nc(=O)n(CCN(C)C)c3c2CCCC3)cc1	3	10
Cc1cccc(Cn2c(=O)c(C(=O)NC3CC3)nn(-c3ccc(C(C)C)cc3)c2=O)c1	-3	3
O=C(CC1CCOc2ccccc21)Nc1ccc(C2CC2)nn1 (stereo not given)	7&-2	3&-4
CCOC(=O)Nc1ccc(OCc2nnc3c4ccccc4c(C)nn23)cc1	-1	-2

Additional records:
SMILES	NPYLR7 agonist	NPYLR7 agonist max-min
COc1ccc(C(=O)Nn2cnc3c(cnn3-c3ccc(C)c(C)c3)c2=O)cc1OC	2	-1
O=C(Nc1nnc(N=Cc2ccc(F)cc2)s1)c1ccc(S(=O)(=O)N2CCOCC2)cc1	-16	-21
CCCCCOC(=O)C1=C(C)NC2=C(C(=O)CCC2)C1c1cccc(OC)c1 (stereo not given)	-3	-8
O=C(NC1C2COCC1CN(Cc1ccc3c(c1)OCO3)C2)c1ccc2ncccc2c1 (stereo not given)	21	11
CCc1nc2ccc(C(=O)NCCN3CCOCC3)cn2c1N(C)C(=O)C1CCCCC1	-3	-7
CCOC(=O)C1=C(COC(=O)C23CC4CC(CC(C4)C2)C3)NC(=O)NC1c1cccs1 (stereo not given)	10	6
Nc1c(C(=O)Nc2ccc([N+](=O)[O-])cc2)sc2nc3c(cc12)C(=O)CCC3	-7	-12
O=C(C=Cc1cc(Br)ccc1F)N1CCc2sccc2C1	-1	-2
CCC(=O)N1CCCC1C(=O)N(Cc1ccc(SC)cc1)C1CC1 (stereo not given)	6	6
Cc1ccc(-c2ccc(CNc3nnnn3C)o2)cc1Cl	-13	-17
CC1CCCC(C)N1 (stereo not given)	-19	-25
O=C(C=Cc1c(F)cccc1Cl)N1CCN(S(=O)(=O)c2ccccc2)CC1	17	3
Oc1ccc(N=Nc2ccc3ncsc3c2)c2cccnc12	0	-3
Cc1ccc(-n2nnnc2CNS(=O)(=O)c2cccc(C(F)(F)F)c2)cc1	1	0
Cc1c(C)n2c3c(=O)[nH]c(=O)n(C)c3nc2n1-c1ccccc1N	0	2
CCCn1c(=S)[nH]c2ccccc21	1	8
c1ccc(CCc2nc(-c3ccncc3)no2)cc1	-14	-21
C=C(Cl)CN1C(=O)NC(CC)(c2ccccc2)C1=O (stereo not given)	-3	2
CCc1nc2cc(NC(=O)C3(C)CCCN(C(C)C)C3)ccc2o1 (stereo not given)	-1	-2
CCN(Cc1nc(COC)no1)C(=O)c1cccnc1C	8	10
Cn1c(=NN=Cc2ccccc2I)sc2ccccc21	-3	-6
CCn1c(-c2cc(C3CC3)[nH]n2)n[nH]c1=O	3	-1
O=[N+]([O-])c1cc([N+](=O)[O-])c2cccnc2c1N1N=C(c2ccccc2)CC1c1ccccc1 (stereo not given)	5	-3
CCCCc1ccc(C(=O)N2CCN(C(C(=O)NCc3ccc(F)cc3)C3CCCC3)CC2)cc1 (stereo not given)	9	14
Cc1ccc(C(C)CCN2CCC(C(=O)Nc3ccc(-n4cccn4)cc3)CC2)o1 (stereo not given)	2	-4

(further entries)
SMILES	NPYLR7 agonist	NPYLR7 agonist max-min
CCN(Cc1nc2ccccc2c(=O)[nH]1)C(=O)c1cc2c(s1)CCCC2	4	10
Cc1nc(NC(=O)CN2CCCCCCC2)sc1C	-6	-8
COc1ccc(-c2n[nH]c(CNC(=O)c3scnc3C)n2)cc1	-10	-11
FC(F)(F)Oc1cccc(-c2nc3c(NCc4ccncc4)nccc3[nH]2)c1	16	9
CN(C)CCCN(C(=O)c1ccc(Br)s1)c1nc2cc3c(cc2s1)OCCO3	0	-1
CC(C)CCNS(=O)(=O)c1cc(Br)ccc1Br	3	0
Cc1cccc(C)c1NC(=O)Nc1ccc(N2CCCC2)c(C(=O)NCc2ccccc2)c1	3	0
CN1CCCC1CCn1ccnc1-c1ccc(Oc2ncccn2)cc1 (stereo not given)	16	6
CC(=O)Nc1cccc2c1CCN(S(=O)(=O)c1ccc3c(c1)CCO3)C2	-3	196
CCCCCCCC(=O)Nc1c(-c2ccc(OC)c(OC)c2)nc2ccccn12	-4	5
COCCNc1ncnc2c1c(-c1ccccc1)cn2-c1ccc(Br)cc1	-3	-5
CN(C(=O)c1cccnc1)C(Cc1ccc(F)cc1F)C1CCN(C(=O)/C=C/c2ccccc2)CC1 (stereo not given)	18	6

Grouped by structure: those above containing a Cl atom
SMILES	NPYLR7 agonist	NPYLR7 agonist max-min
Cc1ccc(-n2c(SCc3ccccc3)nnc2C(C)NC(=O)C(C)(C)CCl)cc1 (stereo not given)	11	4
N#CC(=CC1C(=O)N(c2c(Cl)cccc2Cl)c2ccccc21)C(N)=NCc1ccccc1 (stereo not given)	-11	-17
Cc1cc(S(=O)(=O)NCc2ccc3c(c2)OCO3)c(Cl)cc1Cl	-5	-6
O=C(O)C1CC2(CCNCC2)CN1C(=O)C1(c2ccc(Cl)cc2)CCC1 (stereo not given)	-6	-11
O=C1COc2ccc(Cl)cc2N1	5	1
CC1CN(S(=O)(=O)CCNc2cc(Cl)nc(N)n2)CC(C)O1 (stereo not given)	3	3
CCOC(=O)c1c(NC(=O)c2ccc(C)cc2)sc(C(=O)Nc2cccc(Cl)c2)c1C	11	11
C=C(Cl)Cn1c(NCc2ccccc2)nc2ccccc21	-4	-5
N#Cc1cccc(NC(=O)N(CC(=O)N2c3ccccc3-n3cccc3C2c2ccc(Cl)cc2)C2CC2)c1 (stereo not given)	-7	3
O=C1c2ccccc2C(=O)c2cc(Cl)ccc21	-3	-7
Cn1nnnc1Sc1ccc([N+](=O)[O-])cc1Cl	1	5
CCn1nc(C)c(CNCc2cn(-c3ccc(OC)cc3)nc2-c2ccccc2Cl)c1C	-5	-8
Cc1ccc(-c2ccc(CNc3nnnn3C)o2)cc1Cl	-13	-17
O=C(C=Cc1c(F)cccc1Cl)N1CCN(S(=O)(=O)c2ccccc2)CC1	17	3
C=C(Cl)CN1C(=O)NC(CC)(c2ccccc2)C1=O (stereo not given)	-3	2

High-throughput results: PubChem BioAssay, Fisher Drug Discovery Resource Center

Some of the compounds tested; rates above refer to the full screens.
